Assay outcomes: PubChem BioAssay, several laboratories
ALR H2O2 inh = human ALR oxidase inhibition via reduced H2O2. P55789. purified ALR, DTT oxidation, H2O2 HRP-luminol luminescence. inhibition, % (test concentration not listed). 3.8% of 290,000 active;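 active = mean and each replicate at 75% or more; inconclusive = only one of the two met; inactive = neither met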;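 also: stock transfer was 7.5 nL into about 7.5 µL; 0% = neutral wells and 100% = wells with inactivated enzyme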
Target sequence (P55789 whole entry, looked up): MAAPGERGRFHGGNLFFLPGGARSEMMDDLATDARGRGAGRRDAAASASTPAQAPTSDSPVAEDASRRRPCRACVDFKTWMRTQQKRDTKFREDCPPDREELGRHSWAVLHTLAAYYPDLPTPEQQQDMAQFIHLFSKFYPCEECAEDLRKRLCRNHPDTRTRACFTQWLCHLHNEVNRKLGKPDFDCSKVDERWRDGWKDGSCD
HNF4A DNA FP = change in binding of human HNF4 alpha to DNA. P41235. HNF4a-FITC DNA binding, fluorescence polarization, 1 h. activity change, % at 10 µM. 0.3% of 360,000 active. AID 1224865; in the data active = activity change above about 30%, passing the limit was not always enough;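 also: controls were the assay level and a saturating level of protein; the project sought stronger binding though the title names inhibitors; some compounds called inactive have numbers as strong as hits; positive values seem to mean higher polarization but the record does not say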
Ecoli growth = inhibitors of Escherichia coli growth; 0.21% of 330,000 active; AID 1053175; OD600, 23 h; hits give low values; OD600 absorbance (no concentration beside the values);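 active = OD600 absorbance below the run mean of sample wells minus 3.6 SD, in any replicate, cut at about 0.56 in these data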;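 also: stock transfer was 300 nL into about 60 µL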
Ecoli rRNA inh = inhibitors of bacterial rRNA selective over humanized ribosomes. E. coli WT GFP vs humanized-ribosome RFP mutants, fluorescence, 24 h; hits give low values; DMSO median 0, no signal -100. AID 720706. GFP signal change (wild-type ribosome), % (no concentration beside the values). 1.6% of 350,000 active;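 active = significant combined selectivity score with lowered wild-type GFP, culture density cut under 30%, mutant RFP and density less affected; inactive = any of these conditions unmet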; also: one replicate is shown; some compounds called inactive have numbers as strong as hits
Vif A3G = HIV-1 Vif–A3G interaction blockers – biochemical, TR-FRET, GST-Vif 1-94, biotin-A3G peptide, dose response retest, primary screen (AID 1117319); TR-FRET GST-Vif / biotin-A3G peptide binding; higher % means a stronger effect; test concentration not given here; strong numbers were not always called active; one-dose inhibition, %; IC50 in µM for titrated hits; 0.57% of 260,000 active;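 active = above the screen mean plus three standard deviations and confirmed in dose response; inconclusive = results disagree or hit not tested in dose response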;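 also: Vif residues 1-94 fused to GST binding biotinylated APOBEC3G peptide 110-148; 0% = full assay without inhibitor and 100% = GST in place of GST-Vif; retest series ran down from 100 µM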
FGF22 binding = shifts melting point of recombinant human FGF22 | recombinant FGF22 thermal shift, SYPRO orange fluorescence; percent of sucrose octasulfate shift, DMSO zero | Q9HCT0 | calls only at 9.99 µM | 1.5% of 340,000 active;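 active = melting point raised past a set limit in the mean and every replicate; inconclusive = no clear call; three in four hits are not shown here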
Target sequence (Q9HCT0 whole entry, looked up): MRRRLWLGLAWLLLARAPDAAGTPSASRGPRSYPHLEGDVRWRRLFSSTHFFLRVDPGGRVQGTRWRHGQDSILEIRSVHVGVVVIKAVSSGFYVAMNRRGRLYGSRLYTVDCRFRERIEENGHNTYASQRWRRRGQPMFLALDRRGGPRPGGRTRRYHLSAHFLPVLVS
MLL AF4-AF9 inh = inhibitors of human MLL-AF4/AF9 interaction. P42568. AlphaScreen, biotin-AF4 peptide binding to FLAG-AF9. inhibition, % at 10 µM. 0.47% of 350,000 active;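 active = every replicate reaching a set inhibition limit, whatever the replicate mean, cut at about 25% in these data; inconclusive = mean inhibition reaches that limit but some replicates miss it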;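 also: 0% = plate neutral control median and 100% = total signal loss; the record names both 10 and 1 µM as test concentration; the first replicate is given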
Target sequence (P42568 whole entry, looked up): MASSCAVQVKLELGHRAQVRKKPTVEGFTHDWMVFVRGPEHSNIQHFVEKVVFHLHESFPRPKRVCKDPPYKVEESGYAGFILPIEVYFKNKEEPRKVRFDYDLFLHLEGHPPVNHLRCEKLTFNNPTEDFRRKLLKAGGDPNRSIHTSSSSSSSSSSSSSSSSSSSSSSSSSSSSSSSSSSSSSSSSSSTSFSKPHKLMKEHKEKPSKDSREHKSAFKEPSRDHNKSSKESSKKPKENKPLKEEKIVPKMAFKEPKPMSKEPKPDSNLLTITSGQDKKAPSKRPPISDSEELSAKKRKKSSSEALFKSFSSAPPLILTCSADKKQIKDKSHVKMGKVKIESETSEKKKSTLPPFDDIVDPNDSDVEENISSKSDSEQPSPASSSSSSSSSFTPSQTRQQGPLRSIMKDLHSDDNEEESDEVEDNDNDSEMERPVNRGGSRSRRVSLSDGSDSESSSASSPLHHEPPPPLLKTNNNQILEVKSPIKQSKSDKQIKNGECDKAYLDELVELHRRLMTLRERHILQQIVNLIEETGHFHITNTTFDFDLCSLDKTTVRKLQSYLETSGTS
Ecoli rRNA inh OD600 = further read-out of Ecoli rRNA inh, marked with its call; OD600 change, %; measured here: OD600 growth;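 optical density of the mix in the first replicate; 0 = DMSO median and -100 = no signal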
Ecoli rRNA inh RFP = further read-out of Ecoli rRNA inh, marked with its call; RFP signal change, %; measured here: RFP humanized mutant strains;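 first replicate; 0 = DMSO median and -100 = no signal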
An asterisk follows results filed as active; i = inactive; u = inconclusive; x = no result given; + = active, no number. These rows are one share of the data, so the mix of outcomes need not match the whole.

SMILES	ALR H2O2 inh	HNF4A DNA FP	Ecoli growth	Ecoli rRNA inh	Ecoli rRNA inh OD600	Ecoli rRNA inh RFP	Vif A3G	FGF22 binding	MLL AF4-AF9 inh
C[C@H]1CN([C@@H](C)CO)C(=O)c2cc(NC(=O)Nc3ccc(F)cc3)ccc2O[C@H]1CN(C)Cc1ccccc1	x	x	x	-2	-5	-0.4	x	i	-5.1
Clc1cccc(Oc2ncccn2)c1	-2	-3.4	0.68	1	-1	2.3	x	i	-1.5
COC(=O)c1ccc(CNC(=O)COC(=O)CNS(=O)(=O)c2ccc(C)cc2)cc1	x	-1.3	x	17	22	4.8	-2%	i	-2.1
O=C(NCC(=O)N(Cc1ccco1)C(C(=O)NC1CCCC1)c1ccncc1)c1cccs1 (stereo not drawn)	3	-1.4	0.73	x	x	x	6%	x	x
COc1ccccc1N1CCN(S(=O)(=O)c2c(C)[nH]c(C)c2C(=O)N2CCCCC2)CC1	20	-2.6	0.66	-7	-5	-2.1	-17%	i	0.9
COc1ccc(NC(=O)Nc2ccc3c(c2)C(=O)N([C@H](C)CO)C[C@H](C)[C@@H](CN(C)CC2CCCCC2)OCCCC[C@H](C)O3)cc1	x	x	x	-6	3	-4.3	x	i	-1.9
CC(=O)N(C)C[C@@H]1Oc2cc(C#CC(C)(C)O)ccc2S(=O)(=O)N([C@H](C)CO)C[C@@H]1C	x	x	x	-1	1	-2.5	x	i	-0.7
CS(=O)(=O)N(CC(=O)NC1CCCC1)c1ccc2c(c1)OCCO2	-1	-0.2	0.64	x	x	x	10%	x	x
CCN1C(=O)[C@H]2[C@H]3CN=C(SCC(=O)c4ccccc4)N3[C@@](CC)(C(=O)OC)[C@H]2C1=O	x	2.3	0.69	8	14	2.1	-7%	i	-1.1
O=C(NCCCN1CCOCC1)c1ccccc1	-1	0.6	0.78	x	x	x	2%	x	x
C[C@H]1CN([C@@H](C)CO)C(=O)c2cc(NS(=O)(=O)c3cccs3)ccc2O[C@@H]1CN(C)C(=O)NC1CCCCC1	x	x	x	3	-5	-0.5	x	i	-0.2
O=S(=O)(N[C@H]1CC[C@@H](CCn2cc(-c3ccc(F)cc3)nn2)O[C@H]1CO)c1ccccc1F	x	x	x	-11	-8	-0.8	x	i	0.1
Cc1ccc(C(=O)NCCc2nnc3ccc(SCC(=O)Nc4cc(C)on4)nn23)cc1	-39	-3.8	0.69	1	7	-7.2	1%	i	-9.4
Cc1cc(Cl)ccc1OCC(=O)Nc1cccnc1	-4	0.1	0.58	-12	-8	0.2	x	i	3.1
COc1ccc(C(C(=O)NC(C)(C)C)N(C(=O)CNC(=O)c2cccs2)c2ccc(C)cc2)cc1OC (stereo not drawn)	-8	8.9	0.71	9	6	1.7	-1%	i	4.5
CCN1CCN(C(=S)Nc2sc(C)c(-c3ccccc3)c2C(=O)OC)CC1	4	1.2	0.66	-34	-61	29	2%	i	9.0
Cc1noc(C)c1S(=O)(=O)Nc1cccc2c1O[C@@H](CN(C)Cc1ccncc1)[C@@H](C)CN([C@@H](C)CO)C2=O	x	x	x	1	11	-3.7	x	i	-4.0
COc1ccc(/C=C(\NC(=O)c2ccc(OC)c(OC)c2)C(=O)NCCc2c[nH]c3ccccc23)cc1	-2	2.1	0.68	x	x	x	-4%	x	x
Oc1c(C(c2ccco2)N2CCN(C(c3ccccc3)c3ccccc3)CC2)sc2ncnn12 (stereo not drawn)	x	-0.3	0.74	-4	-9	4.8	32%	i	10
CCC(=O)N(C)C[C@H]1Oc2ncc(C#CC3(O)CCCC3)cc2C(=O)N([C@@H](C)CO)C[C@H]1C	x	x	x	1	-1	-1.6	x	i	-3.7
NNC(=O)C(Cc1ccc(O)cc1)N1Cc2ccccc2C1=O (stereo not drawn)	30	-1.4	0.68	7	9	0.7	-2%	i	-1.0
C=CCn1c(CCc2cc(C(C)(C)C)c(O)c(C(C)(C)C)c2)n[nH]c1=S	4	-1.9	0.67	-11	-13	0.9	u	i	-0.4
CCOC(=O)N(C)C[C@H]1OCc2ccccc2-c2c(n(C)c3ccccc23)C(=O)N([C@@H](C)CO)C[C@@H]1C	x	x	x	-4	-7	-2.5	x	i	-4.4
CN(c1ccc(C(=O)Nc2cccc([N+](=O)[O-])c2)cc1)S(C)(=O)=O	-6	-3.6	0.68	-1	0	-1.7	-5%	i	2.2

Profiles as entered above. Order of screens: ALR H2O2 inh | HNF4A DNA FP | Ecoli growth | Ecoli rRNA inh | Ecoli rRNA inh OD600 | Ecoli rRNA inh RFP | Vif A3G | FGF22 binding | MLL AF4-AF9 inh
CN(c1ccc(C(=O)Nc2cccc([N+](=O)[O-])c2)cc1)S(C)(=O)=O as listed: -6 | -3.6 | 0.68 | -1 | 0 | -1.7 | -5% | i | 2.2
Cc1cc(Cl)ccc1OCC(=O)Nc1cccnc1 as listed: -4 | 0.1 | 0.58 | -12 | -8 | 0.2 | x | i | 3.1

New compounds follow:
SMILES	ALR H2O2 inh	HNF4A DNA FP	Ecoli growth	Ecoli rRNA inh	Ecoli rRNA inh OD600	Ecoli rRNA inh RFP	Vif A3G	FGF22 binding	MLL AF4-AF9 inh
COc1ccccc1CNS(=O)(=O)c1cccs1	-4	0.6	0.69	3	3	-0.3	x	i	1.5
CCOC(=O)/C=C/c1cnn(-c2ccccc2)c1	0	0.5	0.7	x	x	x	8%	x	x
C[C@@H](NC(=O)C[C@@H]1C[C@@H]2c3cc(NC(=O)c4cccnc4)ccc3O[C@@H]2[C@@H](CO)O1)c1ccccc1	x	x	x	-6	-6	-5.4	x	i	-1.7
Clc1ccccc1/C=C/c1ccnc2ccccc12	-4	-3.4	0.62	-56	-80	-30	13%	i	10
COc1cc(-c2cnc3c(NC(C)=O)cc(-c4ccc(N5CCN(C)CC5)cc4)cn23)cc(OC)c1OC	x	11	x	0	12	1.9	x	i	16
CCC(C)c1ccccc1NC(=O)COC(=O)C1=COCCO1 (stereo not drawn)	-14	-0.6	0.69	-4	0	-2.0	-2%	i	0.8
COc1ccc(CCNc2oc(-c3ccco3)nc2C#N)cc1	25	-0.6	0.71	-19	-22	0.6	13%	x	x
CC(C)CN(C(=O)COC(=O)c1ccccc1Sc1ccccc1C#N)C1CCS(=O)(=O)C1 (stereo not drawn)	15	2.5	0.69	x	x	x	13%	x	x
Cc1cc(F)ccc1S(=O)(=O)N1CCCOC1CNC(=O)C(=O)NCc1ccco1 (stereo not drawn)	5	3.4	0.67	x	x	x	-4%	x	x
CC(=O)NCCC(=O)N1CCCC(N(C)CCc2ccccc2)C1 (stereo not drawn)	x	-3.4	0.69	5	9	-2.3	x	i	-0.7
CCN(CC)S(=O)(=O)c1ccc(NC(=O)[C@@H](NC(=O)c2cc(OC)cc(OC)c2)C(C)C)cc1	-10	-1.1	0.67	5	3	1.6	x	i	-0.2
Cc1cccnc1C1=NOC(Cc2ccccc2)C(=O)N1Cc1ccccc1F (stereo not drawn)	x	-0.6	x	-25	-39	-22	x	i	-0.2
COc1ccccc1CNC(=O)c1ccc2nc3[nH]c4ccccc4c3nc2c1	-3	1.3	0.71	6	10	5.3	9%	i	-3.8
Cc1c(C(=O)N/N=C/c2ccncc2)nnn1-c1nonc1N	x	-0.9	x	7	15	0.0	x	i	-1.3
C[C@@H]1CCCCO[C@@H](CN(C)CC2CCCCC2)[C@@H](C)CN([C@@H](C)CO)C(=O)c2cc(NS(C)(=O)=O)ccc2O1	x	x	x	1	1	-0.3	x	i	0.0
O=C(CNCc1ccccc1)Nc1ccc(Cl)cc1	2	3.5	0.63	-3	0	1.0	-4%	i	-7.0
CCC(=O)N1CCCC(C(=O)Nc2ccc3cn[nH]c3c2)CC1 (stereo not drawn)	x	1.6	x	14	6	0.1	x	i	0.1
Nc1nc(SCC(=O)Nc2ccc([N+](=O)[O-])cc2)[nH]c(=O)c1NC(=O)c1ccc(Br)o1	1	5.0	x	5	2	-1.6	x	i	-0.4
CC(C)(C)c1ccc(CC(=O)N2CCC2(C)C(=O)Nc2cnc3ccccc3c2)cc1 (stereo not drawn)	x	2.0	x	-6	-17	1.0	x	i	-2.7
O=C(CSc1ncnc2c1oc1ccccc12)Nc1ccccc1C(F)(F)F	-12	1.5	0.76	6	13	-1.2	-63%	i	1.7
CCC(Oc1ccc(C)cc1)C(=O)Nc1ccccc1C(=O)N1CCOCC1 (stereo not drawn)	-2	2.1	0.69	5	5	2.6	x	i	-0.5
CCCCSc1nc2sc3c(c2c(=O)[nH]1)CC(C)(CC)OC3 (stereo not drawn)	-12	-2.3	0.67	6	13	2.4	2%	i	-0.4
N#C[C@H]1[C@H](c2ccccc2-c2ccccc2F)[C@@H](CO)N1C(=O)C1CCOCC1	x	x	x	1	-1	-1.9	x	i	1.0
Cc1ccc(NC(=O)CN(C)C(=O)c2cc(-c3cccs3)nn2-c2ccccc2)cc1	-6	-2.1	0.69	x	x	x	-2%	i	0.2
COC(=O)C(Cc1c[nH]c2ccccc12)NC(=O)c1cncc(Br)c1 (stereo not drawn)	21	-1.1	0.66	2	4	1.8	-4%	i	2.1
CC1CN(C(=O)CS(=O)(=O)Cc2ccc(Cl)cc2)CC(C)O1 (stereo not drawn)	-1	1.5	0.69	6	4	-1.2	x	i	-1.1
Cc1ccc(NC(=O)CN(C)C(=O)COC(=O)[C@@H](NC(=O)c2ccccc2F)C(C)C)cc1	-2	1.7	0.71	2	-1	0.6	x	i	-4.9
Cc1ccc(N=c2c([N+](=O)[O-])nn(-c3ccccc3)n2O)c(C)c1	x	-2.5	0.71	-25*	-16*	-9.2*	11%	i	u
Cc1nc(NC(=O)COC(=O)C2=NNC(=O)CC2)c(Cl)cc1Cl	1	2.6	0.71	5	4	0.1	1%	i	0.1
COc1ccc(S(=O)(=O)N(C)C[C@H]2OCCCC[C@@H](C)Oc3ccc(NC(=O)Nc4cccc5ccccc45)cc3C(=O)N([C@@H](C)CO)C[C@@H]2C)cc1	x	x	x	2	-5	-0.9	x	+	-8.2
CCOCCCNC(=S)N1CCCC(c2nc3ccc(C)cc3[nH]2)C1 (stereo not drawn)	0	0.7	0.69	-16	-24	-1.4	-1%	i	-1.6
Cc1ccc(S(=O)(=O)N2CC3(O)CN(C(=O)OC(C)C)N(C(=O)OC(C)C)CC3(OC(=O)NCc3ccccc3F)C2)cc1 (stereo not drawn)	x	0.7	x	-8	-15	0.3	10%	i	-3.2
O=C(NC(Cc1ccccc1)C(=O)O)/C(=C/c1ccc(Cl)cc1)NC(=O)c1ccccc1 (stereo not drawn)	4	2.5	0.68	7	2	-2.4	-1%	i	-0.6
S=c1[nH]nc2nnc3ccccc3n12	54	-4.4	0.69	-32*	-18*	-10*	-9%	i	-0.2
CCOc1cc(N2CCOCC2)c(OCC)cc1NC(=O)CN1C(=O)C2C3C=CC(C3)C2C1=O (stereo not drawn)	-3	-0.1	0.7	6	1	3.4	-12%	i	-8.0
CCCCC(=O)Nc1ncc(S(=O)(=O)c2ccc([N+](=O)[O-])cc2)s1	-6	2.5	0.64	-1	3	-1.4	x	i	-3.6
O=C(C[C@@H]1CC[C@H]2[C@@H](COC[C@@H](O)CN2Cc2ccccc2F)O1)N1CCc2ccccc2C1	x	x	x	0	1	9.1	x	i	-0.3
CC(C)(C)c1ccc(C(=O)CS(=O)(=O)c2ccccc2)cc1	-25	-2.7	0.7	x	x	x	-4%	x	x
COc1ccccc1NS(=O)(=O)c1cccc(N=C2N=C(N)c3ccccc32)c1	-2	3.5	0.71	1	4	3.9	9%	i	1.9
